# Screening data deposited in PubChem by Johns Hopkins Ion Channel Center.
# CHT inh = inhibitors of human choline transporter CHT. hit rate 0.86% among 310,000. B-score at 10 µM. CHT-expressing cells, membrane potential dye, choline response; hits give low values;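 active = B-score over 3 SD under the library average, and starting fluorescence ratio not unusually high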;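 note: choline stimulus applied at its EC90 after an EC20 pre-addition; B-score computed on integrated fluorescence ratio after choline addition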
# Target sequence (Q9GZV3 whole entry, looked up): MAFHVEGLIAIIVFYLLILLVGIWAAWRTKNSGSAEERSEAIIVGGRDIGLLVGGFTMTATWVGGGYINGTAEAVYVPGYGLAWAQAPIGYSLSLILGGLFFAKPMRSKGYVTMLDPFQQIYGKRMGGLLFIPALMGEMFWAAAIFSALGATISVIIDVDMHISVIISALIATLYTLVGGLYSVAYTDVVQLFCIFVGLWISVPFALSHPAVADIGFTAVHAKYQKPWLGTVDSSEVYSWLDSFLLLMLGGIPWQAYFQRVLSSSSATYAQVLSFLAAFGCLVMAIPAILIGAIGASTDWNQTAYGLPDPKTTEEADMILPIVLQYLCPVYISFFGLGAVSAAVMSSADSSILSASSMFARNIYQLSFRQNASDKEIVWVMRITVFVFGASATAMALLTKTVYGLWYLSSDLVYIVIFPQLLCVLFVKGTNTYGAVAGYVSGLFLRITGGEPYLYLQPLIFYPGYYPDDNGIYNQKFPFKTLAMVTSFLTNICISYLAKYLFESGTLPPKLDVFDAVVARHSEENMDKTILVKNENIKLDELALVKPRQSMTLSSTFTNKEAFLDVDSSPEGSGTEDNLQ
# Calls only; i = inactive. Not all compounds are listed, and most or all hits are left out here.
Structure | CHT inh
CCOc1ccc(CNC(=O)CCCn2nc(C)c3c(C)n(-c4ccc(C)cc4)nc3c2=O)cc1 | i
Cn1c(=O)[nH]c(=O)c2c1nc(N/N=C/C(Br)=C/c1ccccc1)n2CCO | i
CCOc1ccc(CCNC(=O)CCS(=O)(=O)c2ccc(OC)cc2)cc1OCC | i
N#Cc1cnc2sc3ccccc3n2c1=N | i
C/C(=N\Nc1nc(C)cc(C)n1)c1ccc(N2CCOCC2)cc1 | i
Nc1nnc(SCC(=O)NC23CC4CC(CC(C4)C2)C3)s1 | i
O=C1c2ccccc2C(Nc2ccc(S(=O)(=O)N3CCCCC3)cc2)N1Cc1ccco1 (centres undefined) | i
CC1CCc2c(sc(NC(=O)C3c4ccccc4Oc4ccccc43)c2C(N)=O)C1 (centres undefined) | i
O=C(c1ccc(-c2ccccc2)cc1)N1CCN(c2ccccc2)CC1 | i
O=C(CSc1ccccn1)Nc1nc2c(ccc3ccccc32)s1 | i
N#Cc1c(NC(=O)c2ccc(Cn3cc(Br)cn3)o2)sc2c1CCCCCC2 | i
CCOc1ccc(C(=O)NCC(=O)OCc2ccc(F)cc2Cl)cc1 | i
Clc1ccsc1-c1ccnc(-n2cccc2)n1 | i
CC1CCc2nn(CC(=O)N3CCc4ccccc43)cc2C1 (centres undefined) | i
Cc1ccc(-c2nn(C)c(=O)c3ccccc23)cc1S(=O)(=O)NCCN(C)C | i
Cc1ccc2c(c1)C(=O)c1ccccc1CS2=O (centres undefined) | i
Cc1ccccc1/C=N/NC(=O)c1sccc1C | i
O=C(CN(Cc1ccco1)C(=O)CCC(=O)Nc1ccccn1)NCc1ccccc1 | i
Cn1c(=O)n(Cc2ccc(Cl)cc2)c2ccccc21 | i
CS(=O)(=O)N1CCCC(C(=O)Nc2c(F)cccc2F)C1 (centres undefined) | i
CCOC(=O)C1CCCN(c2c(N3CCN(C4CCCCC4)CC3)c(=O)c2=O)C1 (centres undefined) | i
CC(CCc1ccccc1)NC(=O)COC(=O)c1ccc([N+](=O)[O-])cc1 (centres undefined) | i
CN1CCC(=NNC(=O)CSCc2ccccc2)CC1 | i
COc1cccc(OC)c1C(=O)NC(=S)Nc1ccc2oc(-c3ccncc3)nc2c1 | i
CC(C)=N/N=C1/NC(=O)C(CC(=O)Nc2cc(Cl)ccc2C)S1 (centres undefined) | i
COC(=O)c1ccc(C(=O)OC)c(NC(=O)COC(=O)C2CCC(C(C)(C)C)CC2)c1 (centres undefined) | i
COc1ccccc1/C=C1\C(=O)Nc2ccccc21 | i
CC(NC(=O)c1ccccc1NC(=O)c1ccccc1)C(=O)N1CCOCC1 (centres undefined) | i
COc1cc(CNc2ccc(C(=O)O)cc2)cc(Br)c1OCC(=O)NC(C)(C)C | i
CCN(CC)c1ccc(NC(=O)CN2CCN(c3ccccc3F)CC2)cc1 | i
COc1cc(C)c(C(C)C)cc1S(=O)(=O)NCCCn1ccnc1 | i
Cc1ncc(CN2CCC(CO)(Cc3ccccc3)CC2)s1 | i
CCOC(=O)c1c(N)n(CCOC(=O)c2cccs2)c2nc3ccccc3nc12 | i
O=C(CO)N/N=C/c1c2ccccc2cc2ccccc12 | i
O=C(NCc1ccc2c(c1)OCO2)c1ccc(S(=O)(=O)NCC2CCCO2)cc1 (centres undefined) | i
CC(CCc1ccccc1)NC(=O)Cc1ccc([N+](=O)[O-])cc1 (centres undefined) | i
O=c1cc(NS(=O)(=O)c2ccccc2)nc(SCc2c(Cl)cccc2Cl)[nH]1 | i
C=CCNC(=S)Nc1ccc(Cl)c(S(=O)(=O)N2CCOCC2)c1 | i
COc1cccc(OC)c1C(=O)NC(=S)NCc1ccco1 | i
Cc1cccc2c(CCNC(=O)c3ccc([N+](=O)[O-])cc3)c[nH]c12 | i
Cc1cccc(NC(=O)NCCc2c[nH]c3ccccc23)c1 | i
CC1(c2ccc([N+](=O)[O-])cc2)NC(=O)N(CC(=O)Nc2cccnc2Cl)C1=O (centres undefined) | i
COc1cccc(OCC(Cn2cnc3ccccc32)OC(C)=O)c1 (centres undefined) | i
CN(C)C(=O)c1cc(C(=O)c2ccc(F)cc2F)c[nH]1 | i
O=C(c1ccc(Cl)cc1)n1cnc2ccccc21 | i
Cc1nc(NS(=O)(=O)c2cccs2)c2c3c(sc2n1)CCC3 | i
Cc1cc(C(=O)OCC(=O)N2CC(C)CC(C)C2)c(C)o1 (centres undefined) | i
Cc1nn(CCOc2cccc(Cl)c2)c(C)c1[N+](=O)[O-] | i
Cc1nc2ccc(NC(=O)c3cccc(S(=O)(=O)N(C)c4ccccc4)c3)cc2s1 | i
Cc1cc(C)cc(NC(=O)c2ccc(CNc3c(N4CCCC4)c(=O)c3=O)cc2)c1 | i
O=C(C[n+]1ccccc1)N/N=C/c1cccc(Cl)c1Cl | i
Cc1ccc(Cl)cc1N1CCN(C(=S)NCCc2ccccc2)CC1 | i
Cc1ccc(C(=O)C2Oc3ccccc3C3CC(c4ccc(C)cc4)=NN23)cc1 (centres undefined) | i
COc1ccc(C2=C(Nc3ccc(C)cc3)c3ccccc3C2=O)cc1 | i
O=C(O)Cn1ccnc1 | i
Cc1ccc(N2CC(NC(=O)C(=O)c3c[nH]c4ccccc34)CC2=O)cc1C (centres undefined) | i

# The results go on:
Structure | CHT inh
COc1cc(OC)cc(C(=O)Nc2nnc(NC(=S)Nc3ccccc3)s2)c1 | i
O=C(O)c1ccc2c(c1)C(=O)N(c1ccc(Cl)cn1)C2=O | i
CCCCNC(=O)N1CCN(C/C=C/c2ccccc2)CC1 | i
O=C(Nc1ccccc1N1CCCC1)c1cccc(Cl)c1Cl | i
CCCCOc1ccc(C(NC(=O)OCC)NC(=O)OCC)cc1 | i
O=C1c2ccsc2SCCN1Cc1c(F)cccc1Cl | i
CN(C(=O)C1CCN(S(=O)(=O)c2cccs2)CC1)C1CCCCC1 | i
CC[n+]1ccc(/C=C2\Sc3ccccc3N2CCCS(=O)(=O)[O-])c2ccccc21 | i
Cc1ccc(NS(=O)(=O)c2csc(C(N)=O)c2)c(C)c1 | i
CC1=C(C(=O)OCC(C)C)C(c2cc3c(cc2Br)OCO3)NC(=O)N1C (centres undefined) | i
C/C(=N/NC(=O)CNC(=O)c1ccco1)c1ccc(Cl)cc1 | i
CCCCCCCc1n[nH]c(=S)n1Cc1ccccc1 | i
O=C(O)C(Cc1ccc(O)cc1)N1C(=O)C2CCCCC2C1=O (centres undefined) | i
CCOC(=O)CNC(=O)C12CC3CC(CC(C3)C1)C2 | i
CN(C(=O)c1ccc(Cl)c([N+](=O)[O-])c1)C1(C)CCS(=O)(=O)C1 (centres undefined) | i
Cc1ccc2c(cnn2C(=O)CCC(=O)NCc2cccc(Br)c2)c1 | i
O=C(Nc1cccc(-c2cn3cccnc3n2)c1)c1cccs1 | i
CCn1cc(CN2CCC(n3nccc3NC(=O)c3ccccc3OC)CC2)cn1 | i
COc1cc2nc(C3CCC3)nc(N3CCN(c4ccccc4OC)CC3)c2cc1OC | i
COc1ccccc1Nc1ncnc2c1cnn2-c1cccc(C)c1 | i
CC(NC(=O)C12CC3CC(CC(C3)C1)C2)C(=O)NCCN(C)C (centres undefined) | i
Cc1ccc(NC(=O)c2sc(Cl)nc2-c2ccccc2)cc1 | i
Cc1nnc(SCc2nc3ccccc3s2)n1N | i
COC(=O)c1sccc1NC(=O)CC1C(=O)NCCN1C(=O)Nc1cc(Cl)ccc1OC (centres undefined) | i
COc1ccc(NC(=O)CC(c2ccco2)C(C)C)cc1 (centres undefined) | i
CCn1cc(C(=O)NCCC(=O)NC(C)C)c(=O)c2cc3c(cc21)OCO3 | i
O=C(C(c1ccccc1)c1ccccc1)N1CCC(c2nc(-c3ccccc3Cl)no2)CC1 | i
Clc1ccccc1C1Nc2cccc3cccc(c23)N1 | i
COc1cccc(NC(=O)c2ccccc2N(Cc2ccccc2)S(C)(=O)=O)c1 | i
COC(=O)c1ccc(/C=N/NC(=O)CC(=O)NCC(C)C)cc1 | i
N#CCSc1ncnc2c1cnn2CCO | i
Cc1ccc(N=C2C(=S)N(c3ccc(C)cc3)C(=N)N2/N=C/c2ccc(Cl)cc2)cc1 | i

# Entries listed so far containing an aryl thioether with sulfur outside any ring, in the order listed:
Structure | CHT inh
Nc1nnc(SCC(=O)NC23CC4CC(CC(C4)C2)C3)s1 | i
O=C(CSc1ccccn1)Nc1nc2c(ccc3ccccc32)s1 | i
O=c1cc(NS(=O)(=O)c2ccccc2)nc(SCc2c(Cl)cccc2Cl)[nH]1 | i
Cc1nnc(SCc2nc3ccccc3s2)n1N | i
N#CCSc1ncnc2c1cnn2CCO | i

# (list continues)
COc1ccc2c(-c3ccccc3)cc(SCC(=O)N(C)C)nc2c1
  CHT inh: i
CCOC(=O)C1=C(C)N(C)C(=O)NC1c1cccc2ccccc12 (centres undefined)
  CHT inh: i
CCCC(=O)Nc1c(-c2cccs2)c(=O)c2ccccc2n1CC
  CHT inh: i
CC(C)c1ccccc1NC(=O)COC(=O)c1cc(=O)[nH]c(=O)[nH]1
  CHT inh: i
COC(=O)NNC(=O)C1CCC(C)CC1 (centres undefined)
  CHT inh: i
Cc1ccc(CNC(=O)CCNS(=O)(=O)c2cccs2)cc1
  CHT inh: i
CCOc1ccccc1/C=N/NC(=O)CNC(=O)COc1ccccc1
  CHT inh: i
O=C(NC1CCCCC1)c1cnn2c(C(F)(F)F)cc(-c3ccco3)nc12
  CHT inh: i
O=C(CSc1nc2ccccc2o1)Nc1ccc(Cl)cc1
  CHT inh: i
CN(c1ccc(C(=O)Nc2ccc3c(c2)OCCO3)cc1)S(C)(=O)=O
  CHT inh: i
CCCc1cc(=O)[nH]c(SCc2ccccc2)n1
  CHT inh: i
Cc1cc([N+](=O)[O-])nn1CC(=O)NCCc1c[nH]c2ccccc12
  CHT inh: i
Cc1cc(C(=O)CC#N)c(C)n1-c1ccc(OC(F)F)cc1
  CHT inh: i
O=C(NCc1ccco1)C1CCN(C(=O)c2ccc([N+](=O)[O-])cc2)CC1
  CHT inh: i
CN1C2CCC1CC(OC(=O)c1c[nH]c3ccccc13)C2 (centres undefined)
  CHT inh: i
C/C=C/c1ccc(OCC(=O)OCC2=C(C(=O)OCC)C(C)NC(=O)N2)c(OC)c1 (centres undefined)
  CHT inh: i
Cc1ccc(C(=O)N2CCN(C(=O)c3ccc(C)cc3)C2)cc1
  CHT inh: i
Cc1ccc(/C=C/C(=O)N2CCCC(C(N)=O)C2)o1 (centres undefined)
  CHT inh: i
O=C1c2cccc(O)c2C(=O)c2c(O)cc(CO)cc21
  CHT inh: i
O=C(O)c1ccccc1C(=O)Nc1nc(-c2ccc3ccccc3c2)cs1
  CHT inh: i
Cc1c(NC(=O)c2csc3c2CCCC3)c(=O)n(-c2ccccc2)n1C
  CHT inh: i
CCOC(=O)C1CCN(C2=NC(=O)/C(=C/c3ccccc3OC)S2)CC1
  CHT inh: i
COC(OC)c1ccc(C#N)c(SCc2ccc(C)cc2)n1
  CHT inh: i
Cc1cccc(CSc2nc3c(c(-c4cccs4)c2C#N)CN(C)CC3)c1
  CHT inh: i
Cc1ccc(SCc2cc(=O)[nH]c(N3CCN(Cc4ccc5c(c4)OCO5)CC3)n2)cc1
  CHT inh: i

O=C(NCCC1CCCCN1S(=O)(=O)c1ccc(Cl)cc1)C(=O)NCc1ccncc1 (centres undefined)
  CHT inh: i
c1cncc(CNc2ccc3c(c2)OCO3)c1
  CHT inh: i
COCC(C)NC(=O)COc1nncc2ccccc12 (centres undefined)
  CHT inh: i
COCCNC(=O)C(c1cccs1)N(C(=O)Cn1nnc2ccccc21)c1cccc(C(C)=O)c1 (centres undefined)
  CHT inh: i
Fc1ccccc1C(c1nnnn1Cc1ccc2c(c1)OCO2)N1CCN(Cc2ccco2)CC1 (centres undefined)
  CHT inh: i
O=C(CC1CS(=O)(=O)CC1CC(=O)Oc1ccccc1F)Oc1ccccc1F (centres undefined)
  CHT inh: i
CC1CN(c2ncnc3c2c(-c2ccccc2)cn3-c2ccc(F)cc2)CC(C)O1 (centres undefined)
  CHT inh: i
CCCCCC(=O)Nc1cccc(C2=NOC3(C2)C[C@H](C(N)=O)N(C(=O)COc2ccc(Cl)cc2)C3)c1 (some centres undefined)
  CHT inh: i
CCCOc1cccc(C(=O)Nc2ccc3c(c2)OCCO3)c1
  CHT inh: i
O=C(Cn1cncn1)c1ccc(F)cc1F
  CHT inh: i
O=C(COc1cccc(-n2cnnn2)c1)Nc1ccc([N+](=O)[O-])cc1
  CHT inh: i
COc1cc(/C=C/C(=O)O)ccc1OCc1cnc(Cl)s1
  CHT inh: i
Cc1oc(-c2cccc(Cl)c2)nc1CN1CCC(C(=O)NCC2CCCO2)CC1 (centres undefined)
  CHT inh: i
Cc1ccc(NC2=C(Cl)C(=O)OC2OC(=O)c2ccc(C)cc2)cc1 (centres undefined)
  CHT inh: i
COCCNC(=O)c1c(N)sc2c1CCCC2
  CHT inh: i
NC(=O)NC(CC(=O)OCC(=O)NC(=O)NCc1ccco1)c1ccc(Cl)cc1 (centres undefined)
  CHT inh: i
Cc1cccc(Cn2ccc(-c3ccc(Cl)cc3)c(C#N)c2=O)c1
  CHT inh: i
O=S(=O)(c1ccc(F)cc1)N1CCN(c2nc(-c3ccc(F)cc3)cs2)CC1
  CHT inh: i
O=C1Nc2ccc(Cl)cc2C12Nc1ccccc1-c1nnc(SCc3ccccc3F)nc1O2 (centres undefined)
  CHT inh: i
CC(CC(=O)O)CC1=NS(=O)(=O)c2ccccc2N1 (centres undefined)
  CHT inh: i
O=C(CCn1c(=S)[nH]c2ccccc2c1=O)Nc1cccc(Cl)c1
  CHT inh: i

# Structural class, those above with a cyano group.
N#Cc1cnc2sc3ccccc3n2c1=N
  CHT inh: i
N#Cc1c(NC(=O)c2ccc(Cn3cc(Br)cn3)o2)sc2c1CCCCCC2
  CHT inh: i
N#CCSc1ncnc2c1cnn2CCO
  CHT inh: i
Cc1cc(C(=O)CC#N)c(C)n1-c1ccc(OC(F)F)cc1
  CHT inh: i
COC(OC)c1ccc(C#N)c(SCc2ccc(C)cc2)n1
  CHT inh: i
Cc1cccc(CSc2nc3c(c(-c4cccs4)c2C#N)CN(C)CC3)c1
  CHT inh: i
Cc1cccc(Cn2ccc(-c3ccc(Cl)cc3)c(C#N)c2=O)c1
  CHT inh: i
